# Compound activity as filed in PubChem.
# KCNQ2 pot – potentiators of rat KCNQ2 potassium channel; O88943; CHO-K1 KCNQ2, FluxOR thallium flux fluorescence; hits give high values; B-score at 10 µM; 310,000 compounds, 0.54% hits; AID 2239;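 active = fluorescence ratio B-score at least 3 SD of library B-scores, with initial fluorescence B-score within 3 SD, cut at about 5.3 in these data; same plate scores as AID 2156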;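 also: B-score of peak minus minimum over baseline fluorescence ratio after K+ and Tl+ stimulus; positive B-score means potentiation of KCNQ2 with more thallium influx and brighter signal; only the inactives scoring about 0 or higher are listed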
# Target sequence (O88943 whole entry, looked up): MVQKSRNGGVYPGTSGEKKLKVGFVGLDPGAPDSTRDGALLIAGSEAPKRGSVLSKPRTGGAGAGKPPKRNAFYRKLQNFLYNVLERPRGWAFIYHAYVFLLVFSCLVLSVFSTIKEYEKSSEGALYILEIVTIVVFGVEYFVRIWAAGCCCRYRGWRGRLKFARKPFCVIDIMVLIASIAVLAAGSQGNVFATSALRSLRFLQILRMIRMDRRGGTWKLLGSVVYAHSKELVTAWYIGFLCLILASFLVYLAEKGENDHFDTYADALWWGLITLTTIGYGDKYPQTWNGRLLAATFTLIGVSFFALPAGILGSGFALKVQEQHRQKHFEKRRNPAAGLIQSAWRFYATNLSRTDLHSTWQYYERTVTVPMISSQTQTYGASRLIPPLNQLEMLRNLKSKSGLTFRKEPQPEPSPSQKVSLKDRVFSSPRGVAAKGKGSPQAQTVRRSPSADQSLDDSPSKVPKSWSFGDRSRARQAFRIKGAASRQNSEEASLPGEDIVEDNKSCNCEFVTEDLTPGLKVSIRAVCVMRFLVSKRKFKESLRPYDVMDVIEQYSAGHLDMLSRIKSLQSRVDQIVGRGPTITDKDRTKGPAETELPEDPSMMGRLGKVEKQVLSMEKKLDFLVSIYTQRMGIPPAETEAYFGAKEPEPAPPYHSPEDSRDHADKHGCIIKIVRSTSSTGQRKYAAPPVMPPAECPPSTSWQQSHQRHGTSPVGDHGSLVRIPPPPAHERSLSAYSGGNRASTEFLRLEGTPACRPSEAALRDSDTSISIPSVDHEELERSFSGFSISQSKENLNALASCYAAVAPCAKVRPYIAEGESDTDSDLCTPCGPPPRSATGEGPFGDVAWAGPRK
# KCNQ2 pot baseline – further read-out of KCNQ2 pot, marked with its call; B-score; compound at 10 µM; measured here: initial fluorescence intensity artifact check;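 brightness before thallium and not channel activity; 0 = typical well and far values either way flag optical interference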
# * marks the source's active call; other numbers are inactive results. An excerpt; rates above refer to the full screens.
Structure,KCNQ2 pot,KCNQ2 pot baseline
COc1ccc(CCNC(=O)CN(c2ccc(OC)c(OC)c2)S(=O)(=O)c2ccc(C)cc2)cc1,0.33,0.06
CCn1c(CNc2ccc(F)cc2)nnc1SCC(=O)Nc1ccc(OC)cc1OC,0.61,-0.08
Cc1csc(NC(=O)CSc2ccc(-c3ccc(F)cc3)nn2)n1,0.89,1.2
CCN(CC)CCCNC(=O)c1cn(C)c2ccc(S(=O)(=O)N(C)C)cc2c1=O,0.66,-0.02
Cc1c(Cl)c(C(=O)NNC(=S)NCc2ccco2)nn1C,0.01,2.6
Cc1[nH]c(C)c(S(=O)(=O)NCc2ccc(Cl)cc2)c1C(=O)N1CCCC1,0.82,-0.9
[N-]=[N+]=CC(=O)C(O)(c1ccccc1)C(Cl)c1ccccc1 (centres undefined),0.54,0.99
COc1ccc(NC(=O)CSc2nc(C)cc(C)n2)cc1,0.21,0.81
COc1cc(CCC(=O)Nc2cccc(C(F)(F)F)c2)cc(OC)c1OC,0.52,0.73
C/C(=N/NC(=O)CNC(=O)c1ccccn1)c1ccccc1,0.67,-0.75
CN(C)CCCN(C(=O)c1ccc2c(c1)OCCO2)c1nc2cc3c(cc2s1)OCO3,0.16,-0.47
O=C(CSc1ccc(Cl)cc1)NC1=NN(c2ccccc2)C(=O)C1,0.35,1.1

# The last seven records of the section before are carried over, then new ones follow.
Structure,KCNQ2 pot,KCNQ2 pot baseline
Cc1[nH]c(C)c(S(=O)(=O)NCc2ccc(Cl)cc2)c1C(=O)N1CCCC1,0.82,-0.9
[N-]=[N+]=CC(=O)C(O)(c1ccccc1)C(Cl)c1ccccc1 (centres undefined),0.54,0.99
COc1ccc(NC(=O)CSc2nc(C)cc(C)n2)cc1,0.21,0.81
COc1cc(CCC(=O)Nc2cccc(C(F)(F)F)c2)cc(OC)c1OC,0.52,0.73
C/C(=N/NC(=O)CNC(=O)c1ccccn1)c1ccccc1,0.67,-0.75
CN(C)CCCN(C(=O)c1ccc2c(c1)OCCO2)c1nc2cc3c(cc2s1)OCO3,0.16,-0.47
O=C(CSc1ccc(Cl)cc1)NC1=NN(c2ccccc2)C(=O)C1,0.35,1.1
O=C(NCc1cccnc1)c1cccc(S(=O)(=O)N2CCCC2)c1,1.3,-1.2
CCCn1cc(CN2CCC(Cc3ccccc3)(C(=O)OCC)CC2)c(C)n1,0.24,0.07
COc1cc(NC(=O)c2ccco2)c(C(=O)O)cc1OC,0.96,-0.3
CN1CCN(C(=S)NC(=O)/C=C/c2cccs2)CC1,1.3,-0.98
Cc1cc(C)nc(NS(=O)(=O)c2ccc(NC(=S)NC(=O)CC(C)C)cc2)n1,0.83,0.12
O=C(O)CC1(CC(=O)Nc2ccccc2C(=O)c2ccccc2)CCCC1,0.84,-0.71
COc1cccc(N(CC(=O)NCCSc2ccccn2)S(=O)(=O)c2ccccc2)c1,0.53,-0.76
O=C(CSc1ncnc2sc3c(c12)CCC3)N1CCOCC1,1.4,-0.8
c1ccc2[nH]cnc2c1,0.05,0.87
NC(=O)c1ccc(NC(=O)COC(=O)/C=C/c2cccs2)cc1,0.98,-0.58
O=C(O)c1cc(-c2cccs2)nc2cc3c(cc12)OCCO3,0.03,-0.05
O=c1c(-c2ccco2)[n+]([O-])c2ccccc2n1OCc1ccccc1F,0.01,1.2
Cn1c(SCC(=O)N=Nc2c(O)[nH]c3ccccc23)nc2ccccc21,0.07,-0.01
Cc1ccc(OCC(=O)NCCNC(=O)c2ccco2)cc1C,0.28,-1.7
CCOc1ccc(OCC)c(NC(=O)CSc2nc3c(c(=O)n(C)c(=O)n3C)n2C(C)C)c1,1,0.47
CCCSc1nnc(NC(=O)Nc2ccc(F)cc2)s1,0.14,0.3
NC(=S)N=Nc1ccc(NN=C(N)N)cc1,1.4,-1
Cc1nc(S(=O)(=O)Cc2ccccc2)nc2c1CCC2,0.38,0.22
Cc1ccc(OCCC(=O)OCC(=O)NNC(=O)c2ccccc2)cc1,0.33,-1
Cc1ccc(NC(=O)c2oc3ccc(S(=O)(=O)N4CCOCC4)cc3c2C)cc1C,0.39,-1
O=C(O)c1nn2c(C(F)(F)F)cc(-c3cccs3)nc2c1Cl,0.34,0.67
Cc1nc2ccccc2nc1N1CCC(C)CC1,0.87,-1.7
Nc1[nH]ncc1-c1ccc(Cl)cc1,0.37,-1.5
CC(C)[C@H](NC(=O)c1cccc(S(=O)(=O)N2CCOCC2)c1)C(=O)Nc1nccs1,0.02,0.48
CC(C)CCN1CN(S(=O)(=O)c2cccs2)c2nc3ccccc3nc21,0.39,0.88
CCN(Cc1ccccc1)C(=O)CSc1nc(C)cc2c1C(=O)OC2,2.4,-0.86
O=C(CCc1nc2ccccc2c(=O)[nH]1)Nc1cccc(S(=O)(=O)N2CCOCC2)c1,1.1,-0.22
COc1cc(C(=O)Nc2nnc(C(F)(F)F)s2)c([N+](=O)[O-])cc1OC,0.61,0.82
Cc1cccc(NC(=O)c2ccc3nccnc3c2)n1,2.9,-0.88
CN(C(=O)c1ccncc1)c1ccccc1,3,-0.17
O=C(NCc1ccc(Cl)cc1)c1cc([N+](=O)[O-])ccc1Cl,0.1,0.59
Cn1nccc1NC(=O)COCC(=O)O,0.43,-1.2
COc1ccc(C(=O)NCc2ccc(-n3cccc3)cc2)cc1OC,0.27,-0.05
CCOC(=O)C(CC)n1cnc2c(nnn2-c2ccc(C)cc2)c1=O (centres undefined),1.3,-1.5
CCn1nc([N+](=O)[O-])c(C(C#N)c2nc3ccccc3n2C)c(Cl)c1=O (centres undefined),0.3,0.76
O=C(O)c1ccc(N/N=C/c2c(F)cccc2Cl)cc1,0.18,-2.5
CCOc1ccc(C(=O)O/N=C(\N)c2ccccn2)cc1,1.5,0.4
COc1cccc(NC(=O)CNC(=O)c2ccccc2)c1,2.3,0.85
CCOc1ccc(-n2c(N)c(-c3nc4ccccc4[nH]3)sc2=S)cc1,2,-0.01
CCOc1ccccc1NC(=O)CC1Nc2cc(C)c(C)cc2NC1=O (centres undefined),2.6,0.5
O=C(Cn1ncc2c3ccccc3n(Cc3ccccc3F)c2c1=O)N1CCN(c2ccccn2)CC1,11*,-0.76*
COc1ccc(CCc2nnc(NS(C)(=O)=O)s2)cc1,0.24,-0.79
CC(C)CC(=O)OC1C(N2CCOCC2)c2c(ccc(/C=C/C(=O)N3CCOCC3)c2O)OC1(C)C (centres undefined),0.42,0.01
Cc1nnc(NC(=O)CSc2nnc(-c3ccco3)n2C(C)C)s1,0.85,0.38
COc1ccccc1-c1nnc(SCC(=O)N2CCCC2)o1,0.08,0.52
O=C(CSc1nc2ccsc2c(=O)n1Cc1ccc(C(=O)O)cc1)NCC1CCCO1 (centres undefined),0.52,-0.77
N#CCCN(Cc1ccncc1)C(=S)NC1CC2C=CC1C2 (centres undefined),0.16,1.1
COCCn1c(SCC(=O)Nc2nc(C)cs2)nnc1C(C)C,0.16,1.8
O=C(NC1CCCCC1)c1ccc(CNc2ccccc2)o1,0.01,2.4
CCc1cccc(NC(=O)c2snc3c(=O)[nH]cnc23)c1,0.43,-2.4
O=[N+]([O-])c1ccccc1O[C@@H]1O[C@H](CO)[C@H](O)[C@H](O)[C@H]1O,2,-1.5
Cc1cc(=O)oc2c1c(C)nn2-c1ccc(Br)cc1,0.84,2.4
COc1ccc(S(=O)(=O)CCc2nnc(NC(C)=O)s2)cc1,2.4,-0.27
CCN(CC)C(=O)C1CCCN(Cc2cccc(F)c2)C1 (centres undefined),1.2,-0.1
CCSC(=S)c1c(C)[nH]n(-c2ccccc2)c1=O,7*,-1.1*
CCOC(=O)N1CCN(S(=O)(=O)c2c(C)nc3sccn3c2=O)CC1,1.4,-0.62
Cc1cccc(NS(=O)(=O)c2cnc(Cl)c(Br)c2)n1,0.52,-0.38
O=C1CCc2ccc(NC(=O)C3CC3)cc2N1,2.2,1.9
COc1ccc(C(=O)CC(=O)C(=O)Nc2cc(Cl)c(OC)cc2OC)cc1,0.52,-0.08
CC1CN/C(=C\C(=O)c2ccc(Br)cc2)C(=O)N1 (centres undefined),1.3,0.63

# Following part.
Structure,KCNQ2 pot,KCNQ2 pot baseline
CCCN(C(=O)C(=O)Nc1ccc2nc3n(c(=O)c2c1)CCCCC3)c1ccc(OCC)cc1,2.7,0.11
C=CCN(CC=C)CCOc1cc(C)ccc1[N+](=O)[O-],0.57,-0.15
N/C(=N\OC(=O)CCc1ccccc1)c1ccc(Br)cc1,0.43,-0.03
CN1CCN(Cc2nc(-c3cccs3)no2)CC1c1ccccc1 (centres undefined),0.26,0.91
Cc1ccc(NC(=O)CCNC(=O)c2ccccc2Cl)nc1,1.7,0.49
Cc1ccc(C)c(N2CC(C(=O)O)CC2=O)c1 (centres undefined),0.48,-1.2
CSc1ccc(Cn2nnc(C(=O)NCc3ccccc3)c2N)cc1,1.5,1.5
CCC(C)c1c(O)nc(SCC(=O)c2ccccc2)[nH]c1=O (centres undefined),1.4,-0.08
Cc1ccc(C)c(OCCn2cc(/C=C(\C#N)C(=O)NCc3ccco3)c3ccccc32)c1,1.2,1
CCCOc1ccc(/C=N/Nc2ccc(C(=O)O)cc2)c(OCCC)c1,1,0.02
Cc1ccc(C)c(C(=O)CSc2nc3ccccc3c(=O)[nH]2)c1,1.5,-0.29
COc1ccc(CN2CCNC(=O)C2CC(=O)NCCSc2nccn2C)cc1OC (centres undefined),1.1,0.57
COc1ccc(S(=O)(=O)N2CCCCCC2)cc1N,0.27,1.3
Cc1ccc(N(CC(=O)N/N=C/c2cccs2)S(C)(=O)=O)cc1Cl,1.4,-1.8
CCCCN(C)C(=O)c1nc2ccccn2c1CN1CCN(c2ncccn2)CC1,2.6,-4.1
O=C(CSc1nnc(CNc2ccc(F)cc2)n1CC1CCCO1)N1CCOCC1 (centres undefined),1.3,-0.02
CCc1nc2ccc(C(=O)NCCc3ccccc3OC)cc2nc1CC,1.1,0.89
CON(c1nc(Cl)nc(N(C)C)n1)S(=O)(=O)c1ccccc1Cl,0.11,-2
COc1cccc(NC(=O)Cc2nnc(SCCOc3ccccc3)n2C)c1,0.05,-0.64
Cc1ccc(C(=O)Cn2c(C(=O)O)cc3ccccc32)cc1,0.89,-0.62
NC(N)=NS(=O)(=O)c1ccc(NC(=S)NC(=O)c2ccc3c(c2)OCO3)cc1,1.6,0
Cc1ccc(CSc2nnc(-c3cccs3)n2C)cc1,1.2,0.25
COc1cc(C(=O)NCc2nnc(SCC(=O)c3ccc(Cl)cc3)o2)cc(OC)c1OC,0.75,-1.4
COc1ccc(C(=O)Nc2cc3c4c(c2)CC(=O)N4CCC3)cc1,0.85,-1.9
CC(=O)c1cccc(NC(=O)c2ccc(N(C)S(C)(=O)=O)cc2)c1,1.7,0
CCOc1ccccc1NC(=O)CN1C(=O)COc2ccccc21,0.72,0.81
COC(=O)CN1C(=O)CC(C)(C)S(=O)c2ccccc21 (centres undefined),0.54,-1.1
CCCn1cnnc1CNC(=O)C1CCC(=O)N(CCCc2ccccc2)C1 (centres undefined),0.66,4.5
COc1cccc(-c2ccc(=O)n(CC(=O)Nc3ccc(C(=O)N4CCCC4)cc3)n2)c1,2.7,-0.86
Cc1ccccc1-n1c(SCc2cc(=O)n3ccccc3n2)nc2[nH]ncc2c1=O,0.02,-0.09
COc1ccc(/C=C\c2nc(O)c([N+](=O)[O-])c(=O)[nH]2)cc1O,1.6,-0.4
Cc1nn(C)cc1S(=O)(=O)NCc1ccc2c(c1)OCO2,0.69,-0.37
Cc1cccc(C(=O)OCC(=O)N(CC(C)C)c2c(N)n(Cc3ccccc3)c(=O)[nH]c2=O)c1O,2,-2.2
CC(=O)c1cccc(S(=O)(=O)N2CCCC(c3nc4c(nnn4Cc4ccccc4Cl)c(=O)[nH]3)C2)c1 (centres undefined),0.04,-0.45
CC1(C)CC(=O)C2=C(C1)N(c1cccc(Cl)c1)C(=O)NC2(C(F)(F)F)C(F)(F)F,0.56,-0.03
CCCc1ncc(C(O)c2cccc3ccccc23)n1C (centres undefined),0.71,0.78
CCN1C(=O)[C@@H]2[C@@H](c3ccc(-c4ccc(F)cc4)cc3)N3CCC[C@@]3(C(=O)OC)[C@@H]2C1=O,2,-1.8
CC(NC(=O)C1CCN(S(=O)(=O)c2cnc[nH]2)CC1)c1ccccc1 (centres undefined),0.03,-0.06
O=C(O)COCC(=O)Nc1ccc(OCCc2ccccc2)cc1,1.7,-1.7
Cc1nc2c(ccc3nc(NC(=O)C4CC4)sc32)s1,0.11,-0.71
O=C(COc1ncnc2scc(-c3ccccc3)c12)NCCN1C(=O)CSC1=O,1.1,-0.59
CCOC(=O)c1c(/N=C/c2cc([N+](=O)[O-])ccc2O)sc(C)c1C,1.8,-0.68
COc1cc(CNCCSc2nnnn2C)cc(OC)c1OC,0.37,-0.17
Cc1ccccc1Nc1nc(N)nc(CN2CCN(c3ccccn3)CC2)n1,0.01,0.26
O=C(Nc1nc(-c2ccccn2)cs1)c1ncc(Cl)c(Cl)c1Cl,1.6,0.23
COc1ccc(C(CNc2nc(-c3cccnc3)nc3ccccc23)N(C)C)cc1 (centres undefined),0.88,0.03
